Screening data (PubChem)
Sa ugtP lethal = growth inhibition of ugtP-null S. aureus, primary screen, RN4220 ugtP deletion, OD600 | growth inhibition, % (no concentration beside the values) | 0.54% of 330,000 active | 16 h; some inactives read as strong as hits;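 active = z-score under -3 and OD600 up to 0.15 on both plates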;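 note: plate controls were untreated wells for no effect and antibiotic for full effect; wells of about 80 µL received 100 nL stock; the first replicate is given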
Sa RN4220 lethal = growth inhibition of S. aureus RN4220, primary screen, OD600. 16 h. inhibition, % (no concentration beside the values). 0.33% of 330,000 active. AID 1259311, 2017;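 active = z-score of -3 or lower and OD600 up to 0.18 on both plates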;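 note: plate controls were untreated cells for no effect and reference antibiotic for full effect; stock transfer was 100 nL into about 80 µL; one replicate is shown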
Bead autofluor = flagged as autofluorescent in microsphere protease counterscreen | compound autofluorescence counterscreen, microsphere flow cytometry; stronger effect = higher value | 3.1% of 360,000 active | AID 624483 | fluorescence intensity (test concentration not listed);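 active = at least 3 SD above the mean of all compounds, about 16000 in these data; inconclusive = too few beads counted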;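 note: 100 nL of 1 mM stock went into each well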
BJeLR viability = MLPCN primary cell-based screen for lethality selective to Ras in HRASV12 cells. BJeLR (HRASV12) viability, CellTiter-Glo ATP luminescence, 48 h; reference of the scale not given here. inhibition, % (concentration not given with the values). 0.17% of 300,000 active;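 active = replicate mean above 50%; inconclusive = above 50% but judged a plate artefact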;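 note: 50 nL library stock added to about 25 µL; numbers are from one replicate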
PrP 5UTR inh = inhibition of PrP 5' UTR reporter expression | cell-based PrP 5' UTR mRNA reporter, plate reader | inhibition, % (test concentration not listed) | 0.35% of 340,000 active;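 active = every replicate at 50% or more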;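 note: 0 = median of the neutral control wells; tested in H4 reporter cells; numbers are from one replicate; inactives centre near -14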
Mtb hypoxia rep = PubChem AID 1159583 | M. tuberculosis hypoxia-regulated fluorescent reporter, fluorescence | 0.1% of 300,000 active | fluorescence inhibition, % (no concentration beside the values);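 active = 35 to 45% if threefold the growth effect, above 45% if 1.5-fold the growth effect; inactive = the rest, general growth blockers included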;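 note: wells of about 50 µL received 100 nL stock; 0% = vehicle wells and 100% = reference inhibitor wells; whole bacteria with a GFP reporter of the hypoxia response; strong numbers were not always called active; many hits fall short of the cut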
Mtb hypoxia rep growth = also measured in Mtb hypoxia rep; calls as there; growth inhibition, %; measured here: M. tuberculosis growth (absorbance);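 0% = vehicle and 100% = reference antibiotic; read after six days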
Starred values were filed as active, the others as inactive; ? = inconclusive; nt = not tested or not shown.

SMILES	Sa ugtP lethal	Sa RN4220 lethal	Bead autofluor	BJeLR viability	PrP 5UTR inh	Mtb hypoxia rep	Mtb hypoxia rep growth
Cc1cc(=O)[nH]c2c1c(-c1ccccc1)nn2C	0	6.9	3903	3	-11	-3	4
COC(=O)COc1ccc(C2Nc3c(Cl)ccc(C(=O)O)c3C3C=CCC32)cc1 (centres undefined)	11	16	4334	6	-34	18	18
CCOc1ccc2nc(NC(=O)Nc3ccccc3)sc2c1	-15	6.9	3749	-6	-100	10	10
COc1ccc(N2CCN(CC(=O)NC(=O)NC(C)(C)C)CC2)cc1	4	8.5	3949	-3	-79	4	11
CC(NC(=O)COc1ccc(N(C)S(=O)(=O)c2ccccc2)cc1)c1ccccc1 (centres undefined)	10	-1.0	4996	2	-6	13	6
CCOc1ccc(C(=O)N2CCCC2C(=O)O)cc1 (centres undefined)	-1	1.7	9224	nt	2	3	7
Cc1csc(NC(=O)c2ccc(-c3ccc(Cl)cc3Cl)o2)n1	-9	7.8	2377	4	-23	-7	-3
Cc1cc(C(=O)NN=C2C3CC4CC(C3)CC2C4)c2ccccc2n1	3	3.7	9868	6	-7	0	2
CC(CC1C(C#N)=C(N)OC2=C1C(=O)CCC2)c1ccccc1 (centres undefined)	0	3.6	6143	-1	-1	11	3
CC(NC(=O)c1ccco1)c1ccc2c(c1)OCO2 (centres undefined)	-1	1.7	5641	3	-13	16	-2
N#Cc1c(N)n(-c2cccc(O)c2)c2nc3ccccc3nc12	6	7.8	4595	-3	-5	19	33
CCCCNC(=O)c1ccc2c(c1)N(CC)C(=O)CS2	2	5.8	9672	4	-23	3	6
Cc1ccc(S(=O)(=O)NCc2c(-c3ccccc3)noc2C)cc1	2	5.8	4536	8	-8	-2	7
COc1ccc(/C=C/C(=O)Nc2nc(C)c(C(=O)N(C)C)s2)cc1	6	2.4	2035	-1	-11	8	-3
CCCOc1ccc(/C=C/C(=O)O)cc1OC	5	3.0	4146	3	-15	0	7
CCN(CC)CCNc1nc(-c2ccccc2)nnc1C(F)(F)F	-2	-3.2	5776	4	0	3	5
COCCCN1Cc2cccc(C(=O)O)c2C1=O	-1	-9.1	7286	-7	-14	13	13
Cc1ccc2c(c1)nnn2C1CCN(S(C)(=O)=O)CC1	11	5.5	7047	-12	-17	8	-1
Cc1ccc(NC(=O)COC(=O)C2=COCCO2)c([N+](=O)[O-])c1	7	-0.6	3300	12	-23	0	0
COc1ccccc1C=NNC(=O)c1ccc(N(C)S(=O)(=O)c2ccccc2)cc1	4	4.4	nt	nt	nt	3	-7
C=CCn1c(O)c(/C=C2\C=NN=C2c2ccccc2)sc1=S	-5	-17	5764	-7	-26	4	3
O=C(NCCc1ccccc1)c1c(F)cccc1F	12	5.3	4089	1	-63	-6	-3
CCCCOc1ccc(/C=C(\C(=O)O)c2ccc(S(=O)(=O)N3CCCC3)s2)cc1	-15	8.6	3874	nt	-5	8	7
CC1CCCN(C(=O)CSc2nnc(-c3ccc(O)cc3)o2)C1 (centres undefined)	5	0.7	3778	-5	-25	18	14
CNC(=O)c1ccsc1NC(=O)CCS(=O)(=O)c1ccc(F)cc1	11	4.7	6644	2	-26	8	3
CCN(CC)S(=O)(=O)c1cccc(-c2nnc(SCc3nc4ccccc4s3)o2)c1	-6	0.7	2660	-7	-36	nt	nt
CC(C)CCOC(=O)C[N+](C)(C)CCOC1CC2CCC1(C)C2(C)C (centres undefined)	101*	45	4496	3	-17	41*	24*
Cc1cc(/C=N/Nc2ccc([N+](=O)[O-])cn2)c(C)n1-c1cccc(C(=O)O)c1	nt	nt	3537	1	-18	nt	nt
COc1cccc(CN(C)S(=O)(=O)c2cccs2)c1	8	9.9	3966	0	-14	6	8
CCOc1ccc(N(CC(=O)Nc2cc(C)ccc2C)S(=O)(=O)c2c(C)[nH]c(=O)[nH]c2=O)cc1	18	3.2	4541	1	nt	-2	1
COC(=O)C(C)Oc1ccc2c3c(c(=O)oc2c1)CCCCC3 (centres undefined)	1	3.6	?	15	-27	10	1
Cc1ccc(C)c(NC(=O)C2Cc3ccccc3CN2C(=O)OCc2ccccc2)c1 (centres undefined)	-2	-5.4	3027	-2	-30	nt	nt
COc1cc(C(=O)NC(=S)Nc2ccccc2N2CCCC2)cc(OC)c1OC	-9	-0.3	3900	0	-18	-9	1
O=C(N/N=C/c1c(O)n(-c2ccc(Cl)cn2)c(=O)c2ccccc12)C1CC1	0	3.6	2509	-2	-13	4	8
COC(=O)c1cc(OC)c(OC)cc1NC(=O)c1ccc(Br)o1	-5	-2.3	2497	3	-6	13	5
COc1ccc(Cc2nc3ccccc3n2CC(=O)N/N=C/c2ccc(C)cc2O)cc1OC	nt	nt	8764	-10	-18	nt	nt
CCOc1ccc(C(=O)NCC(c2ccco2)N2CCOCC2)cc1 (centres undefined)	5	1.2	nt	8	-21	5	1
CC1CCCC/C1=N/Nc1ccc([N+](=O)[O-])cc1[N+](=O)[O-] (centres undefined)	nt	nt	2439	-2	-6	nt	nt
O=C(Cc1cccs1)N/N=C/c1ccccc1	nt	nt	6440	-3	-43	nt	nt
CC(C)NC(=O)c1ccccc1S(=O)c1ccccc1C#N (centres undefined)	3	-0.4	2611	5	-7	nt	nt
COc1ccccc1NC(=S)N1CCN(CC=Cc2ccccc2)CC1	-1	0.0	nt	nt	nt	-3	4
COc1ccc(N2CCN(CCCn3c(=S)[nH]c4ccccc4c3=O)CC2)cc1	2	-0.6	3061	19	-12	-5	3
CC(C)(C)OC(=O)COc1cc(OCC(=O)OC(C)(C)C)c2c(=O)cc(-c3ccccc3)oc2c1	3	4.0	7278	nt	-13	2	-5
CCN(CC)S(=O)(=O)c1ccc(OC)c(NC(=O)Cn2cnc3c2c(=O)n(C)c(=O)n3C)c1	-11	-2.8	4528	-2	-84	-6	3
c1ccc(CC2CN=C(Nc3ccccc3)N2CC2CCCCCC2)cc1 (centres undefined)	-28	2.5	nt	nt	nt	14	17
CCCSc1ccc(C(=O)Nc2ccc(Cl)cc2)cn1	6	4.4	3511	-9	-30	11	6
O=C(NCC(c1ccco1)N1CCCCC1)c1ccc2c(c1)S(=O)(=O)c1ccccc1C2=O (centres undefined)	-18	-1.9	4719	0	-15	-3	3
CN(C)c1ccc(/C=N/NC2=NS(=O)(=O)c3ccccc32)cc1	nt	nt	3959	-5	-20	nt	nt
CC1CN(C(=O)c2ccc(S(=O)(=O)Nc3ccccc3F)cc2)CC(C)O1 (centres undefined)	3	-0.2	?	0	-32	0	6
Cc1ccc(C(=O)NCCN2C3=NC[C@H](C)N3C[C@H]2Cc2ccc(O)cc2)cc1Br	nt	nt	4100	5	-24	nt	nt
CCOc1ccc(OCCOc2ccc(/C=C/C(=O)O)cc2OCC)cc1	6	3.9	6621	-6	-2	12	10
O=C(NCC(c1ccco1)N1CCOCC1)c1ccc([N+](=O)[O-])cc1 (centres undefined)	1	0.8	6206	4	18	13	14
NC(=O)c1nsc(C(=O)N(c2ccccc2)C(C(=O)NCC2CCCO2)c2cccs2)c1N (centres undefined)	nt	nt	4482	-2	-10	nt	nt
CC1CCN(S(=O)(=O)c2ccc(NC(=O)CSc3ncccc3C(=O)O)cc2)CC1	0	2.2	5727	-10	-14	5	3
CCOC(=O)Cc1csc(NC(=O)c2sc3nc4ccc(CC)cc4cc3c2N)n1	-26	10	12028	12	-24	10	1
CCC(C(=O)OC)n1cnc2c(oc3ccccc32)c1=O (centres undefined)	2	2.4	4102	-8	-9	9	-3
COc1ccc(/C=C/C(=O)NCC(=O)n2nc(C)cc2C)cc1	-3	-4.7	5103	-6	nt	-1	1
O=C(NCCNC(=O)c1cnccn1)c1ccc(Cl)cc1	nt	nt	3791	-6	-3	nt	nt
O=C(OCCN=C1NS(=O)(=O)c2ccccc21)c1ccco1	6	8.0	3629	-2	3	7	7
Nc1c(C2CCCCC2)c(=O)on1C(=O)c1ccccc1	3	3.7	3666	nt	-12	9	10

3 compounds from above, reduced to PrP 5UTR inh, Sa RN4220 lethal and BJeLR viability.
Compound,PrP 5UTR inh,Sa RN4220 lethal,BJeLR viability
O=C(NCC(c1ccco1)N1CCOCC1)c1ccc([N+](=O)[O-])cc1 (centres undefined),18,0.8,4
NC(=O)c1nsc(C(=O)N(c2ccccc2)C(C(=O)NCC2CCCO2)c2cccs2)c1N (centres undefined),-10,nt,-2
CC1CCN(S(=O)(=O)c2ccc(NC(=O)CSc3ncccc3C(=O)O)cc2)CC1,-14,2.2,-10

The main list resumes, repeating the 3 entries before the break.
SMILES	Sa ugtP lethal	Sa RN4220 lethal	Bead autofluor	BJeLR viability	PrP 5UTR inh	Mtb hypoxia rep	Mtb hypoxia rep growth
O=C(NCCNC(=O)c1cnccn1)c1ccc(Cl)cc1	nt	nt	3791	-6	-3	nt	nt
O=C(OCCN=C1NS(=O)(=O)c2ccccc21)c1ccco1	6	8.0	3629	-2	3	7	7
Nc1c(C2CCCCC2)c(=O)on1C(=O)c1ccccc1	3	3.7	3666	nt	-12	9	10
COc1ccc(CCNc2nc(N3CCOCC3)nc(N3CCOCC3)n2)cc1OC	-4	19	2967	8	-19	nt	nt
COc1ccc(CNCC(O)COc2ccc(C(C)(C)c3ccccc3)cc2)cc1 (centres undefined)	-33	-2.9	3079	-12	-21	12	2
CCOc1ccc(S(=O)(=O)N2CCN(C(=O)c3ccccc3Cc3ccccc3)CC2)cc1	nt	nt	?	0	-1	nt	nt
CC(=O)C1=C(C)N(CC2CC2)C(=O)N[C@H]1c1ccccc1	nt	nt	3361	-9	-7	nt	nt
O=c1c2ccccc2nc2n1CCCCC2	3	-1.2	2979	1	-17	nt	nt
O=C(NC(c1ccccc1)c1ccccc1)c1ccc(=O)[nH]n1	11	4.0	4790	7	-25	15	2
CCOC(=O)c1ccccc1NC(=O)CSc1nnc(Cc2cccn2C)n1-c1ccc(C)cc1	-16	5.8	11220	-12	-7	5	4
Cc1ccc(NC(=O)C2CC2c2ccccc2)c([N+](=O)[O-])c1 (centres undefined)	nt	nt	3376	2	-62	nt	nt
CC(C)(C)n1nc2c(c1NC(=O)COc1ccc(F)cc1)CS(=O)(=O)C2	-6	-5.1	6238	-7	-24	-5	3
Cc1ccccc1CN(c1ccc(C(=O)NCc2cccnc2)cc1)S(C)(=O)=O	3	4.1	4261	-7	10	13	4
COc1ccc(OCC(O)CN(CC(O)COc2ccc(OC)cc2)c2cccc(O)c2)cc1 (centres undefined)	0	-1.0	5429	2	-7	-1	-8
O=C(NN=C1SCC(=O)N1Cc1ccco1)c1ccccc1F	-1	4.0	nt	nt	nt	17	10
COc1ccc(NC(=S)NC(=O)CC(C)C)c(OC)c1	-13	-0.5	2631	-6	-32	-9	7
Cc1cc(SCC(=O)N(C)C2CCCCC2)nc2ccccc12	-14	2.5	3857	nt	-13	-2	-2
NC(=O)c1cc2nc(-c3ccco3)cc(C(F)(F)F)n2n1	-1	4.7	8533	-8	1	16	5
CCCc1[nH]n(-c2nc3ccccc3s2)c(=O)c1C=NCC(C)C	-11	-15	2792	1	-15	3	2
CC(OC(=O)c1ccc2c(c1)S(=O)(=O)c1ccccc1C2=O)C(N)=O (centres undefined)	3	12	3794	-3	-17	16	11
O=c1ccc2cc3c4c(c2o1)CCCN4CCC3	-1	1.7	5169	-4	3	-3	1
Cn1nc(C(F)(F)F)c(/C=N/OCc2c(Cl)cccc2Cl)c1Cl	nt	nt	9967	1	-21	nt	nt
COc1cc(NS(=O)(=O)c2ccc(NC(=O)c3ccc(S(=O)(=O)N4CCCC4)cc3)cc2)ncn1	0	2.4	nt	0	nt	6	5
O=C(NC1CCCCC1)N(Cc1cc2cc3c(cc2[nH]c1=O)OCCO3)C1CCCCC1	4	6.5	7781	-2	-17	4	11
NC(=O)Nc1ccc(C(=O)OCC(=O)c2c[nH]c3ccccc23)cc1	-7	1.8	3902	nt	-9	3	5
COc1ccc(C(=O)COC(=O)CNC(=O)c2cc(OC)cc(OC)c2)cc1	-7	3.7	2021	-7	-4	1	0
Cc1ccc2ccc[n+](Cc3ccccc3)c2c1	1	4.0	4416	13	-33	8	-3
COc1ccc(N2C(=O)CC(SCc3ccc(Cl)cc3)C2=O)cc1 (centres undefined)	-2	2.8	4346	-9	-24	12	5
CN(C)S(=O)(=O)c1ccc(NC(=O)CCNC(=O)c2ccc([N+](=O)[O-])cc2)cc1	3	2.1	2164	-10	-21	5	-6
